CtBP-E1A blk = CtBP/E1A binding inhibition | 340,000 tested, 0.49% active | AlphaScreen GST-E1A/His-CtBP binding, 1536-well; hits give low values; control for the full effect not named in the record | activity change, % (no concentration beside the values); in the data active means activity change below about -65%; inconclusive means about -30% to -65%; inactive means above about -30%; note: % is set by controls: 0 for no effect and ±100 for the full control effect; compound concentration not given in the record
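AlphaScreen with 125 nM GST-E1A and 125 nM His-CtBP (5X stocks) in Tris pH 8.0, 300 mM NaCl, BSA, Tween 20, TCEP. Compounds preincubated 2 h at 37 deg C, then glutathione donor/nickel acceptor beads added for 1 h at 37 deg C in dark.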
ClpP mod = qHTS Assay for Activators of ClpP; purified B. subtilis ClpP, FRET peptide cleavage, 20 min; Potency, µM (top dose mostly 57.5 µM), without a hit: at the highest dose activity change, negative = active; AID 651965, 2013; 340,000 tested, 1.9% active; active = well fitted falling curve with a large enough effect; inconclusive = small, poorly fitted or top-dose-only effect; inactive = no such curve, though single readings can be large or run the other way; note: potency is the fitted concentration of half-maximal effect; the source files actives as falling curves though it sought activators and does not explain the sign; nearly all actives have a fitted effect of over 65% in size; many hits overshoot -100%
Target sequence (P80244 whole entry, looked up): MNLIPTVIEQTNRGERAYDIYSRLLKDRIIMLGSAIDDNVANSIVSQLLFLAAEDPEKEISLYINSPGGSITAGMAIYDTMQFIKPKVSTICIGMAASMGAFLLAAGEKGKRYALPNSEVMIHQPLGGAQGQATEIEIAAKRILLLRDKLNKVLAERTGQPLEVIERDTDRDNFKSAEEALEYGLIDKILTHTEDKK
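FRET quenching reversal measured ClpP activation: 10 microg/mL B. subtilis ClpP at pH 8 with the FRET-FV decapeptide, read at 430 nm after 320 nm excitation. The 20-min minus 0-min signal was scaled between DMSO/no-enzyme wells and ADEP (5.8 microM final).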
Numbers without * were called inactive; ? = inconclusive. The list is partial; the hit share may differ from the screen's.

SMILES	CtBP-E1A blk	ClpP mod
Cc1cccnc1C(c1ccc(F)cc1)N(C)C(=O)C1CCN(CCCOc2ccc(F)cc2)CC1 (stereo unspecified)	2	0.5%
CCc1nc2ccc(C(=O)NCCCn3ccnc3)cn2c1N(CC)CCN(C)C	-23	-10%
O=C(NCc1ccccc1)C1C(=O)Nc2ccccc2C(=O)N1C1CCCC1 (stereo unspecified)	12	-9.5%
O=C(NCCc1cccs1)Nc1nnc([C@H]2C[C@H](O)[C@@H](CO)O2)s1	-7	0.1%
CC1=C(C(=O)N(C)C)CC(CC(=O)NCCN2CCOCC2)C(=O)N1CCCN1CCCC1=O (stereo unspecified)	0	?
COC(=O)c1ccc2c(c1)S(=O)(=O)NC2C (stereo unspecified)	1	1.3%
CC(C)COC(=O)N1CCCC(c2cc(C(=O)Nc3ccccc3Cl)no2)C1 (stereo unspecified)	16	-6.4%
Cc1nc2ccc(C(=O)N3CCN(C(=O)c4ccco4)CC3)cn2c1N(C)C(=O)CCc1ccccc1	0	-2.1%
O=S1(=O)CC(N2CCCC2)CN1C1CCCCC1 (stereo unspecified)	2	2.1%
COc1cc(CN2C[C@@H](CO)O[C@@H](n3cnc4c(NCCCO)ncnc43)C2)cc(OC)c1OC	-15	-0.2%
COc1ccc(-c2ccc(C(=O)NCc3ccc(N(C)C)cc3)c3occc23)c(C)c1	-66*	?
CC(C)C(C(=O)NC1CCCC1)N1CCC(O)(c2ccc(Cl)cc2)CC1 (stereo unspecified)	-2	-3.9%
CC1(C(=O)NS(=O)(=O)c2ccc(C#N)cc2)CCN1C(=O)c1cccc2ccccc12 (stereo unspecified)	6	-1.1%
CC1(C(=O)Nc2cccc3cccnc23)CCN1Cc1ccc(-c2ccccc2)o1 (stereo unspecified)	-19	-13%
O=c1cc(CN2CCCCC2)c2c(ccc3ccccc32)o1	11	-20%
CSCCC(C(=O)NC1CCCC1)n1c(C2CCCC2)nc2ccccc21 (stereo unspecified)	-11	-7.8%
Cn1ncc2cc3c(Nc4ccc(Cl)cc4)cccc3nc21	21	-20%
O=C(Nc1nnc([C@@H]2C[C@H](O)[C@@H](CO)O2)s1)Nc1cccc(Cl)c1Cl	3	-1.9%
Cc1c(C(=O)NCc2ccc3c(c2)OCO3)sc(=O)n1Cc1cccc(F)c1	-19	0.3%
CCc1ccc([C@H]2[C@@H]3C(=O)C[C@@H]4C(=O)NC(=O)[C@@H]4[C@@H]3CN2S(=O)(=O)c2ccc(C)cc2)cc1	-1	0.3%
CCOC(=O)C(C)Oc1cccc2c(=O)n(CC(=O)Nc3ccc(OC)cc3)ccc12 (stereo unspecified)	-8	4.9%
Cn1c(NCCc2ccncc2)nc2cc(-c3cccc(Cl)c3)sc2c1=O	1	-0.5%
FC(F)(F)c1ccccc1Cc1c(-c2cccc(Br)c2)nc2ccc(Br)cn12	7	-10%
COc1cc(-c2cnc3c(NC=O)cc(-c4ccsc4)cn23)cc(OC)c1OC	?	-12%
Cc1cc(NC(=O)c2ccc3sc([C@@H]4O[C@H](CO)[C@H](O)[C@H](O)[C@H]4O)nc3c2)no1	-21	-5.5%

Of the compounds above, 3 have a thiophene ring, fused or not:
SMILES	CtBP-E1A blk	ClpP mod
O=C(NCCc1cccs1)Nc1nnc([C@H]2C[C@H](O)[C@@H](CO)O2)s1	-7	0.1%
Cn1c(NCCc2ccncc2)nc2cc(-c3cccc(Cl)c3)sc2c1=O	1	-0.5%
COc1cc(-c2cnc3c(NC=O)cc(-c4ccsc4)cn23)cc(OC)c1OC	?	-12%

(next part)
SMILES	CtBP-E1A blk	ClpP mod
CC(=O)Nc1cncc(-c2cnn(CC(C)C)c2)n1	-4	5.1%
CCOC(=O)[C@]12CCCC=C1N(Cc1ccc(Cl)cc1Cl)C(=O)[C@H](CC(=O)N1CCCCC1)C2	-5	3.3%
Cn1c(=O)c2c(-c3ccccc3)n(-c3ccccc3Br)cc2n(C)c1=O	0	-18%
CC(C)(C)c1ccc(CC(=O)N2CCC2(C)C(=O)NS(=O)(=O)c2cccs2)cc1 (stereo unspecified)	4	-0.6%
O=C(NCc1cc(Cl)cc(Cl)c1)c1ccc2nc([C@H]3C[C@H](O)[C@@H](CO)O3)[nH]c2c1	?	-3.2%
CCCCC[C@@H](C)N1C[C@H](COCc2ccccc2)Oc2cc(N3CC[C@@H](N(C)C)C3)ccc2S1(=O)=O	-18	-4.5%
Cc1c(C(=O)NCc2ccc3c(c2)OCCO3)sc(=O)n1Cc1ccccc1F	-3	-0.8%
COc1ccc(-c2ccc(C(=O)NCCN(C)C)c3occc23)c(C)c1	-1	4.5%
COc1ccc(NC(=O)C2(C)Cc3c(-c4cccc(C(F)(F)F)c4)ccnc3O2)cn1 (stereo unspecified)	-3	2.7%
CN(C)CCN(Cc1ccccc1)C(c1ccnc2ccccc12)c1nnnn1-c1ccc2c(c1)OCCO2 (stereo unspecified)	6	-1.1%
CO[C@H]1CN(C)C(=O)c2ccc(NC(=O)NC(C)C)cc2OC[C@H](C)NC[C@H]1C	-16	-2.1%
COC(=O)[C@@]12C[C@@H](CC(=O)N3CCSCC3)C(=O)N(Cc3ccc4c(c3)OCO4)C1=CCC(C)(C)C2	-4	2.7%
COc1ccc(-n2nnnc2C2c3ccccc3C(=O)N2C2CCN(Cc3ccccc3)CC2)cc1 (stereo unspecified)	4	2.4%
Cc1cc2c(cc1C)-n1nnnc1C(N1CCN(c3ccccn3)CC1)C(c1ccc3c(c1)OCO3)=N2 (stereo unspecified)	3	-13%
CCc1ccc(OC2(C)CCN(Cc3ccc4c(c3)OCCO4)C2)cc1 (stereo unspecified)	-5	-1.5%
Cc1[nH]ncc1Nc1ccccc1C(C)C	0	-3.2%
COc1ccc(OCCN2CCC(C(=O)NC(c3ccc(F)cc3)c3ccc4ccccc4n3)CC2)cc1 (stereo unspecified)	-29	-4.8%
CNc1ncnc2c1ncn2[C@H]1CN(CCc2ccccc2)C[C@@H](CO)O1	5	-3.5%
C=C1C[C@@H]2C[C@@H]2CN(S(=O)(=O)c2ccc(C)cc2)[C@@H]1c1ccco1	0	-2.1%
COc1ccc(CCNC(=O)Nc2nc(C(N)C3CCCCC3)cs2)cc1OC (stereo unspecified)	0	-4.7%
CCc1nc2ccc(C(=O)NCCCn3ccnc3)cn2c1N(C)C(=O)COc1ccccc1	2	-4.5%
COCCNC(=O)C1(C)CCCN(Cc2ccc(Oc3ccccc3)cc2)C1 (stereo unspecified)	4	2.0%
CCOC(=O)[C@]12CCCC=C1N(Cc1ccc3c(c1)OCO3)C(=O)[C@H](CC(=O)NCC13CC4CC(CC(C4)C1)C3)C2	0	1.0%
CC(C)c1cn(CC[C@@H]2CC[C@H](NS(=O)(=O)c3ccc(F)cc3)[C@@H](CO)O2)nn1	1	-1.2%
COc1ccc2c(c1)[C@]1(C[C@H](O)CO1)C(=O)N2C	0	0.3%

2 entries from above, bar-delimited:
Compound | CtBP-E1A blk | ClpP mod
CCOC(=O)[C@]12CCCC=C1N(Cc1ccc3c(c1)OCO3)C(=O)[C@H](CC(=O)NCC13CC4CC(CC(C4)C1)C3)C2 | 0 | 1.0%
CC(C)c1cn(CC[C@@H]2CC[C@H](NS(=O)(=O)c3ccc(F)cc3)[C@@H](CO)O2)nn1 | 1 | -1.2%

The list goes on:
SMILES	CtBP-E1A blk	ClpP mod
CNc1cnc(-c2cccc(C(=O)N3CCOCC3)c2)cn1	-23	4.9%
Nc1[nH]c(C(=O)c2ccccc2)c(-c2ccccc2Br)c1C(=O)NCCc1c[nH]c2ccccc12	-1	-3.3%
CN1C(=O)C(c2cn(C)c3ccccc23)(c2cn(C)c3ccccc23)c2cc(Br)ccc21	-19	-0.2%
CCCCCNC(=O)C(c1ccncc1)n1c(=O)c(-c2cc3ccccc3[nH]2)nc2ccccc21 (stereo unspecified)	17	-12%
CCOC(=O)C1(C)CCCCCN1C(=O)c1ccc(C(F)(F)F)nc1C (stereo unspecified)	7	0.4%
O=S(=O)(NN=Cc1cccc(Cl)c1)c1ccccc1	7	0.3%
NC(Cc1ccc(F)cc1)c1csc(Nc2nncc3ccccc23)n1 (stereo unspecified)	-3	0.1%
COC(=O)[C@@]12C[C@@H](CC(=O)NCc3cccs3)C(=O)N(Cc3ccccc3)C1=CCC(C)(C)C2	0	1.2%
Cc1nc(C(F)(F)F)ccc1C(=O)N1CCC1(C)C(=O)NS(=O)(=O)c1ccccc1 (stereo unspecified)	14	1.5%
CC(C)C[C@@H](COCc1cccc(Cl)c1)N1CCN(C(=O)c2ccc(C(F)(F)F)cc2)CCC1=O	1	0.4%
CNc1cncc(-c2ccoc2)n1	-4	5.0%
COc1cc(C23CCCN(CCC(C(C)(C)C)C2)C32OCCO2)cc(OC)c1OC (stereo unspecified)	-24	5.4%
C[C@@H](c1ccccc1)N1C[C@@H](COCc2ccccc2)Oc2cc(N3CCC[C@@H]3CO)ccc2S1(=O)=O	-1	?
COc1cccc(CNC(=O)[C@@H]2CCCN2C(=O)[C@H]2CCCCN2C(=O)c2cccc3ccccc23)c1	-14	-1.5%
COc1ccc(-c2cnc3c(NC=O)cc(-c4ccccc4OC)cn23)cc1OC	-17	?
CCOC(=O)C1=CCN(S(=O)(=O)c2cccc(Cl)c2)C1c1ccc(C)cc1 (stereo unspecified)	16	-1.4%
O=C1NC[C@H](Cc2ccc(O)cc2)N(C[C@@H]2CCCN2C[C@H](Cc2ccc(O)cc2)N2C[C@H](Cc3ccccc3)N(CC3CCCCC3)C(=O)C2=O)C1=O	-10	0.2%
CC(=O)Nc1cccc(NC(=O)c2ccccc2Cl)c1	-3	1.6%
CCOC1=C2[C@H](c3ccccc3)N(S(=O)(=O)c3ccc(C)cc3)[C@H](C(C)C)[C@H]2n2c(=O)n(-c3ccccc3)c(=O)n2C1	-8	1.0%
CC(N)c1csc(Nc2ccc(S(C)(=O)=O)cc2)n1 (stereo unspecified)	-3	-0.9%
CC(C)C[C@H]1CN(CCCC[C@H]2CNC(=O)C(=O)N2CC2CCCCC2)C(=O)C(=O)N1CCc1ccc(O)cc1	5	2.6%
COC(=O)C1=CN(c2ccc(C)cc2)C(N)=C(C#N)C1c1ccccc1F (stereo unspecified)	1	-0.2%
COc1ccc(NC(=O)C2(C)CCN2C)cc1OC (stereo unspecified)	0	-0.6%
O=C1Nc2ccccc2NC(c2ccc3c(c2)OCO3)=C1N(Cc1ccc(F)cc1)C(=O)c1ccco1	0	1.8%
CCCNC(=O)C1(C)CCN(Cc2ccc3ccccc3c2Br)C1 (stereo unspecified)	-7	-5.3%

Further results follow:
SMILES	CtBP-E1A blk	ClpP mod
COc1ccc(CNC(=O)c2[nH]c(C(F)(F)F)nc2-c2ccccc2)cc1	-1	-1.7%
CC(C)N1CCCC(C)(C(=O)Nc2nc3ccccc3n2C)C1 (stereo unspecified)	13	0.6%
CCOc1ccc(CCN2C(=O)C(=O)N([C@@H](CC(C)C)CN3CCC[C@H]3CN3C(=O)C(=O)NC[C@@H]3Cc3ccc(O)cc3)C[C@@H]2Cc2ccccc2)cc1	0	-0.1%
CC1(C(=O)NCC2CC2)Cc2c(-c3ccc4c(c3)OCO4)ccnc2O1 (stereo unspecified)	4	4.6%
COc1ccc(Cl)cc1C1=NOC2(CCC2)C(=O)N1Cc1cccc(C#N)c1	-18	-7.6%
OC(c1cc(F)cc(Cl)c1)c1ncc(-c2ccccc2Cl)[nH]1 (stereo unspecified)	-12	-1.6%
COc1ccc(C2=Nc3ccccc3N(C(=O)c3cccnc3)C2C(=O)NC(C)(C)C)cc1 (stereo unspecified)	-8	-2.9%
O=C1NC[C@@H](CCCCN2CCN(Cc3ccccc3)C(=O)C2=O)N(CCC2CCCCC2)C1=O	0	-0.3%
CC(C)CC(N)c1csc(NC(=O)Nc2ccccc2-c2ccccc2)n1 (stereo unspecified)	-13	-4.6%
CN(C)CCNc1ncnc2c1ncn2[C@H]1CN(C)C[C@@H](CO)O1	10	-2.5%
COc1ccc(CCN2C(=O)COc3ccccc3C2C(=O)Nc2c(C)cccc2C)cc1OC (stereo unspecified)	5	1.8%
CC(C)C[C@H]1CNC(=O)C(=O)N1C[C@H]1CCCN1C[C@H](CC(C)C)N1C[C@H](Cc2ccccc2)N(CCc2ccccc2)C(=O)C1=O	0	1.4%
COc1cc(-c2coc3c(C(=O)NCc4ccccc4)cccc23)ccc1O	?	-1.1%
CC1(C(=O)NCc2ccccn2)CCN1C(=O)Cc1ccc(Cl)cc1Cl (stereo unspecified)	1	-0.8%
NC(Cc1ccccc1)c1csc(NC(=O)Nc2ccccc2Oc2ccccc2)n1 (stereo unspecified)	-6	1.3%
Cc1ccc(C(=O)Nc2c(-c3ccc(Cl)cc3)[nH][nH]c2=O)cc1	-23	-2.1%
CC(C)NC(=O)C1C(c2ccc(C(F)(F)F)cc2)=Nc2ccccc2N1C(=O)c1ccco1 (stereo unspecified)	6	0.8%
Cc1ccccc1-c1cc2nc(NCCOc3ccccc3Cl)n(C)c(=O)c2s1	5	-30%
CCOC(=O)c1cc(-c2cccc(O)c2)oc1C	-7	-1.6%

Three of the entries above in order of their number in CtBP-E1A blk, lowest first:
| SMILES | CtBP-E1A blk |
| --- | --- |
| COc1ccc(Cl)cc1C1=NOC2(CCC2)C(=O)N1Cc1cccc(C#N)c1 | -18 |
| NC(Cc1ccccc1)c1csc(NC(=O)Nc2ccccc2Oc2ccccc2)n1 (stereo unspecified) | -6 |
| CC(C)C[C@H]1CNC(=O)C(=O)N1C[C@H]1CCCN1C[C@H](CC(C)C)N1C[C@H](Cc2ccccc2)N(CCc2ccccc2)C(=O)C1=O | 0 |

CtBP-E1A blk, what is marked active above
molecule	CtBP-E1A blk
COc1ccc(-c2ccc(C(=O)NCc3ccc(N(C)C)cc3)c3occc23)c(C)c1	-66*
